nsP2pro inh = inhibitors of chikungunya virus nsP2 protease. Q8JUX6. FRET peptide cleavage, nsP2pro, fluorescence 1 h. Potency, µM (series often up to 24.9 µM), for inactives: at the top dose activity change, negative = inhibition, most hits filed as inhibitors. actives 1.1% (n = 31,000); active means well fitted inhibition curve with a large enough effect; inconclusive means small, poorly fitted or top-dose-only effect; inactive means no such curve, though single readings can be large or run the other way; note: nearly all actives have a fitted effect of over 60% in size; a reference inhibitor and vehicle were the controls
* marks the source's active call; other numbers are inactive results; i = inactive; ? = inconclusive; & = joins results of further samples; [ ] = dose if it differs, or a comment. % is set by controls: 0 for no effect and ±100 for the full control effect; potency is the fitted concentration of half-maximal effect. Some of the compounds tested; rates above refer to the full screens.

compound | nsP2pro inh
O=C1Nc2ccccc2C12CC2c1cc(Cl)c(O)c(Cl)c1 (stereo not drawn) | 2%&2%
COC(=O)NC1CCN(c2ccc3nnc(-c4ccccc4)n3n2)C1 (stereo not drawn) | -17%
N=C(N)c1ccc(OCCCOc2ccc(C(=N)N)cc2)cc1 | ?
O=P(O)(O)OC(Cn1cncn1)(Cn1cncn1)c1ccc(F)cc1F | -4%
COc1ccc(C(=O)N2C[C@@H]3C[C@H](C2)c2ccc(NS(=O)(=O)c4cccc(F)c4)c(=O)n2C3)cc1 | ?
COc1ccc(CCNC(=O)CN(c2cc(C(F)(F)F)ccc2Cl)S(C)(=O)=O)cc1 | -9%
O=C(O)c1ccc2c(c1)C(=O)N([C@H](Cc1ccc3ccccc3c1)C(=O)O)C2=O | i
O=[S+]([O-])(c1ccc(N2CCOCC2)nc1)N1CCN([S+](=O)([O-])c2c(F)cccc2F)CC1 | -5%
CCN(CC)Cc1cccc(NS(=O)(=O)NCc2ccccc2)c1 | -21%
COc1ccc(NC(=O)c2cc(-c3ccc(C)c(C)c3)nc3ccccc23)cc1 | -1%
O=C(NC1CCCC1)N1CCCC(C(=O)N2CCC(c3nc4ncccc4[nH]3)C2)C1 (stereo not drawn) | i
CCOC(=O)CN(Cc1ccccc1)C(C(=O)NC1CCCCC1)c1ccccc1 (stereo not drawn) | -14%
Nc1nnc(SCC(=O)Nc2ccccc2C(F)(F)F)s1 | -9%
Cc1cc(OCCCS(C)(=O)=O)cc(C)c1-c1cccc(COc2ccc3c(c2)OC[C@H]3CC(=O)O)c1 | 74%[activator]
Cc1cc(C)nc(NC(=S)N2CCN(c3ccc(F)c(F)c3)CC2)c1 | 3%

Reprinted from the part before: seven compounds; new compounds follow.
compound | nsP2pro inh
CCN(CC)Cc1cccc(NS(=O)(=O)NCc2ccccc2)c1 | -21%
COc1ccc(NC(=O)c2cc(-c3ccc(C)c(C)c3)nc3ccccc23)cc1 | -1%
O=C(NC1CCCC1)N1CCCC(C(=O)N2CCC(c3nc4ncccc4[nH]3)C2)C1 (stereo not drawn) | i
CCOC(=O)CN(Cc1ccccc1)C(C(=O)NC1CCCCC1)c1ccccc1 (stereo not drawn) | -14%
Nc1nnc(SCC(=O)Nc2ccccc2C(F)(F)F)s1 | -9%
Cc1cc(OCCCS(C)(=O)=O)cc(C)c1-c1cccc(COc2ccc3c(c2)OC[C@H]3CC(=O)O)c1 | 74%[activator]
Cc1cc(C)nc(NC(=S)N2CCN(c3ccc(F)c(F)c3)CC2)c1 | 3%
COc1cccc(NC(=O)c2oc3ccc(S(=O)(=O)N4CCOCC4)cc3c2C)c1 | 0%
CO[C@@]1(NC(=O)C2SC(=C(C(N)=O)C(=O)O)S2)C(=O)N2C(C(=O)O)=C(CSc3nnnn3C)CS[C@@H]21 (stereo partly drawn) | 6%
CCc1ccccc1Nc1nn2c(=O)c3ccc(C(=O)NCc4ccccc4OC)cc3nc2s1 | -3%
COc1cccc(N2CC(NC(=O)C3CCCCC3)CC2=O)c1 (stereo not drawn) | -22%
O=C(COc1ccc(-c2nnc3n2CCCC3)cc1)N1CCN(c2ccc(F)cc2)CC1 | -4%
Clc1ccc(COC(Cn2ccnc2)c2ccc(Cl)cc2Cl)cc1 (stereo not drawn) | 98%[activator]
Cc1cc(C(=O)NNCc2ccccc2)no1 | 0%[39.2 µM]
Cc1nc(Nc2ccc(F)cc2)nc(N2CCc3ccccc3C2C)c1C (stereo not drawn) | 27%
CN(Cc1ccccc1)Cc1cc(C[C@@H]2C[C@H](NC(=O)C3CCC3)C2(C)C)no1 | ?
O=C(NCc1ccc(F)cc1)n1cc(P(=S)(c2ccccc2)c2ccccc2)c2ccccc21 | 2%
CC(=O)O[C@@H]1[C@H](O[C@@H]2OC[C@](O)(CO)[C@H]2O)[C@@H](O[C@@H]2O[C@@H](C)[C@H](O)[C@@H](O)[C@H]2O)[C@H](OC(=O)[C@]23CCC(C)(C)C[C@H]2C2=CCC4[C@@]5(C)C[C@H](O)[C@H](O[C@@H]6O[C@H](C(=O)O)[C@@H](O)[C@H](O)[C@H]6O)[C@@](C)(C(=O)O)C5CC[C@@]4(C)[C@]2(C)CC3)O[C@@H]1C (stereo partly drawn) | -13%[5.1 µM]
COC(=O)CC1CCN(C(=O)C2CC(=O)N(c3n[nH]c4cccc(F)c34)C2)CC1 (stereo not drawn) | i
CC(C)(O[C@@H]1O[C@H](CO)[C@@H](O)[C@H](O)[C@H]1O)C(OC(=O)/C=C\c1ccc(O)cc1)C(=O)OCc1ccc(O[C@@H]2O[C@H](CO)[C@@H](O)[C@H](O)[C@H]2O)cc1 (stereo partly drawn) | 10%[10 µM]
C/C(=C\c1cccc(C(F)(F)F)c1)C1Nc2cccc3cccc(c23)N1 | i
COc1ccc(CN2CC(c3nc(Cc4cccnc4)no3)C2)c(OC)c1 | -14%
Cc1cc(C)n2c(Nc3ccc(C(C)C)cc3)c(-c3ccsc3)nc2n1 | -10%
COc1cc2c(cc1OC)C(COc1ccc(F)cc1)N(C(=O)Cc1ccccc1)CC2 (stereo not drawn) | -9%
COc1ccc(N2CCN(CCCNC(=O)c3cc(Nc4ccccc4OC)nc4ccccc34)CC2)cc1 | 11%
Cc1ccc(NS(=O)(=O)c2ccc3c(c2)CCC(C)(C)O3)cc1C | i
Cc1nc(-c2cccc(F)c2)sc1CCNC(=O)C(=O)Nc1ccc2c(c1)OCCO2 | -27%
COC(=O)Cc1c(C)nc2nc(-c3ccc(C)cc3)[nH]n2c1=O | -18%
CCOC(=O)N1CCN(C(=O)c2cnn(-c3cccc(F)c3)c2-n2cccc2)CC1 | -13%
O=C(c1cn[nH]c1)N1CC2(CN(Cc3cccc(Cl)c3)CC2COc2ccccc2)C1 (stereo not drawn) | 0%[39.2 µM]
COc1ccc(/C=C/C(=O)Nc2nc(-c3cccs3)ns2)cc1OC | 2%
O=C(NCc1cccnc1)C1CN(S(=O)(=O)c2ccccc2)CC12CCCCC2 (stereo not drawn) | i
COC(=O)c1cc(Cl)ccc1NS(=O)(=O)C(F)(F)F | 5%
COC1=CC(=O)O[C@@H](/C=C/c2ccccc2)[C@@H]1O | -13%
O=S(=O)(Nc1ccccc1)c1ccc(O)c2ncccc12 | i
CC(=O)N1CCCc2cc(S(=O)(=O)N3CCC(C(=O)NCc4ccccc4)CC3)ccc21 | -18%
COc1ccc(C2Nc3ccccc3C(=O)N2Cc2ccccc2)cc1OCc1ccc(NC(C)=O)cc1 (stereo not drawn) | 4%
NS(=O)(=O)c1ccc(Nc2nc(OCC3CCCCC3)c3[nH]cnc3n2)cc1 | 239%[activator]
O=C([C@@H]1C[C@H](Oc2ccccc2)CN1C(=O)C1CC1)N1CCCC1 | -5%
COc1ccc(CCNC(=O)CCn2c(=O)c3ccccc3n(Cc3cc(C)ccc3C)c2=O)cc1OC | -20%
CCOc1ccc(C(=O)Oc2ccc(-c3nc4ccccc4[nH]3)cc2)cc1Cl | -5%
Cc1ccc(NC(=O)Cn2c(=O)n(Cc3ccco3)c(=O)c3oc4ccccc4c32)cc1C | -8%
O=C1CCC(C(=O)N2CCSCC2)CN1CCc1cccc(F)c1 (stereo not drawn) | i
Cc1nonc1OCCn1ccnc1-c1cn(C2CCNCC2)nn1 | i
C[C@H](O)C(O)(C(=O)OCc1ccccc1NC(=O)CCC(N)C(=O)O)[C@H](C)O (stereo partly drawn) | -17%[10 µM]
Cc1ccc(-c2cc(C(=O)Nc3ccccc3Cl)c3ccccc3n2)cc1C | 4%
CCOc1ccc(NC(=O)N2CCN(c3nnc(C)c4c(C)n(-c5ccccc5)nc34)CC2)cc1 | -7%
O=[N+]([O-])c1ccc([S+](=O)([O-])N2CCN([S+](=O)([O-])c3ccc4c(c3)OCCO4)CC2)c([N+](=O)[O-])c1 | -12%
N=c1n(CCN2CCCCC2)c2ccccc2n1CC(O)COc1ccc(Cl)cc1Cl (stereo not drawn) | 42%[activator]
C1CCN2CC3C[C@@H](CN4CCCC[C@@H]34)[C@H]2C1 | ?
O=S(=O)(Nc1cccc(-c2ccc(N3CCCCC3)nn2)c1)c1ccc(F)cc1F | -20%
Cc1ccc(NC(=O)Cn2c(-c3cncs3)nc3ccccc32)cc1Br | -12%
Cc1onc(C(=O)NCCc2noc(-c3ccncc3)n2)c1Cn1cc(Cl)cn1 | 1%
CCc1nn(CC(=O)N2CCN(c3cccc(C)c3C)CC2)c(=O)c2cc3sccc3n12 | -14%
CC(=O)N1CCCc2cc(S(=O)(=O)N(CCN(C)C)Cc3ccccc3)ccc21 | -21%
CC(=O)OC1C[C@]2(C)C(O)CC(C)=C[C@H](OC(=O)c3ccc(O)cc3)C2[C@]1(O)C(C)C (stereo partly drawn) | -3%[10 µM]
CC(=O)Nc1ccc(OCc2cccc(-c3nc4ccccc4c(=O)n3Cc3ccco3)c2)cc1 | ?
CC[C@@H](C(=O)[C@@H](C)[C@@H](O)[C@H](C)CCc1ccc(C)c(O)c1C(=O)O)[C@H]1O[C@](CC)([C@H]2CC[C@](O)(CC)[C@H](C)O2)C[C@@H]1C | -7%
COc1ccc(CC(C)NS(=O)(=O)c2ccc3c(c2)CCN3S(C)(=O)=O)cc1OC (stereo not drawn) | -18%
c1ccc(-c2nc(C3CC3)no2)c(OC2CCNC2)c1 (stereo not drawn) | i
CC(C)CCCC1CN(C(=O)c2c(O)cccc2O)CCO1 (stereo not drawn) | -6%
COc1ccc([C@H]2Cc3cccc(O)c3C(=O)O2)cc1 | 7%
COc1ccccc1-c1cccc(C(=O)N2CCN([S+](=O)([O-])c3c(C)noc3C)CC2)c1 | 4%
S=C(NC1CCCCC1)N[C@H]1CO[C@H]2[C@@H]1OC[C@@H]2n1nnnc1-c1ccc2c(c1)OCO2 | 1%
c1cncc(CNc2ncnc3ccc(-c4ccco4)cc23)c1 | ?
O=C(NC1CC(=O)N(CCCc2ccccc2)C1)c1ccoc1 (stereo not drawn) | -4%
CN1CCN([C@H]2CCN(Cc3ccc4occc4c3)C[C@H]2CCC(=O)O)CC1 | 0%

Continuation.
compound | nsP2pro inh
O=C(c1n[nH]c2ccccc12)N1CC2CC(C1)[C@H]1CCCC(=O)N1C2 (stereo partly drawn) | 1%
O=c1cc(-c2cccnc2)oc2c(-c3cccc(CO)c3)nccc12 | -7%[39.2 µM]
Cc1ccc(-c2nccc(N3CCC(O)C3)n2)c(C)c1 (stereo not drawn) | 2%
CCCCn1c(=O)n(CC2CCC(C(=O)NCCCOC)CC2)c(=O)c2sccc21 (stereo not drawn) | -24%
Cc1cccc(CC(=O)N2CCCCC2c2nc(C3CC3)n[nH]2)c1 (stereo not drawn) | 3%
CN(CCc1ccccc1)C(=O)c1cc(-c2ccc[nH]2)n[nH]1 | ?
CC(=O)c1ccc(NS(=O)(=O)c2cc(-c3cc(C)no3)ccc2C)cc1 | -17%
Cc1nnc(-c2cnn(C)c2N)n1CCCc1ccncc1 | 0%
C=C[C@@](C)(CCC=C(C)C)O[C@@H]1O[C@H](CO[C@@H]2OC[C@H](O)[C@H](O)[C@H]2O)[C@@H](O)[C@H](O)[C@H]1O | -7%[10 µM]
CCn1cnc2c(Nc3ccc(CC(=O)N=C(N)N)cc3)nc(C#N)nc21 | i
Cc1cc(C)c2c(=O)cc(C(=O)Nc3sc4c(c3C(=O)NCc3ccco3)CCCC4)oc2c1 | -12%
Cc1noc(-c2cccs2)c1C(=O)NCCC(c1ccccc1)c1ccccc1 | i
COc1ccc(NC(=O)N2CCc3c(sc4c3CCCC4)C2c2ccccc2OC)cc1 (stereo not drawn) | -8%
CS(=O)(=O)CCNCc1nc(-c2ccc3ncnc(Nc4ccc(OCc5cccc(F)c5)c(Cl)c4)c3c2)cs1 | 89%[activator][5.1 µM]
Cc1ccc(CNCc2cccn2-c2nnc(N3CCCC3)s2)cc1 | -7%
CC(C)n1cc(C(=O)NCc2cccnc2Oc2ccc(F)cc2F)cn1 | 1%
COc1cc(N2CCN(C)CC2)ccc1Nc1nccc(-c2cn(C)c3cnccc23)n1 | 115%[activator]
C=C1C[C@@]23CCC4[C@@](C)(CCC[C@@]4(C)C(=O)OC)C2CC[C@@H]1C3 (stereo partly drawn) | -16%
CNC1CCc2ccccc21 (stereo not drawn) | ?
C=C1/C(=C/C=C2\CCC[C@]3(C)[C@@H]([C@H](C)CC[C@@H](O)C(C)(C)O)CC[C@@H]23)C[C@@H](O)C[C@@H]1O | 6%
CC(C)OCCCNC(=O)c1cc(C2CC2)nc2onc(C3CCNC3)c12 (stereo not drawn) | -28%
COCc1nnc2n1CCC(NC(=O)CCc1c(C)noc1C)CC2 (stereo not drawn) | -9%
Clc1ccc(CCC(Cn2ccnc2)Sc2c(Cl)cccc2Cl)cc1 (stereo not drawn) | 117%[activator]
CC(C)(C)OC(=O)N1CCC(c2c(C(=O)NCCN3CCCC3)cnn2-c2ccc(Cl)cc2)CC1 | -8%
CO[C@H]1C[C@@H](O)C12CCN(C(=O)CCc1ccc(-c3cccs3)o1)CC2 | ?
COc1ccc(C(=O)N2CCN(c3nnc4ccccn34)CC2)cc1OC | -4%
CN(Cc1ccco1)C(=O)c1ccc2c(c1)N(Cc1ccccc1F)C(=O)c1ccccc1S2 | -31%
COc1cc(Nc2ccc([N+](=O)[O-])cc2C(=O)O)cc2ccccc12 | 72%[activator]
O=C(NC1CCN(CC(F)(F)F)CC1)c1ccc(-c2cccc(F)c2)nc1 | -15%
Cc1ccnc(NC(=S)N2CCc3ccccc3C2)c1 | -7%
COc1cccc(-c2ccc(C(=O)NCCNC(=O)c3ccccc3OC)cc2)c1 | i

Compound activity (PubChem BioAssay)
